# Yeast UUG start = yeast start codon fidelity modulation. activity score, % at 18.7 µM. S. cerevisiae UUG-firefly luciferase reporter, luminescence/redox ratio. 350,000 tested, 0.13% active. AID 602363;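 active means replicate mean at a twofold rise or more, about +100% in these data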;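 further: firefly luciferase made from a UUG start codon reports start codon fidelity; reporter light over untreated wells divided by growth signal over untreated wells; some hits fall short of that in this replicate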
# Env fusion inh = inhibitors of HIV Env-mediated cell fusion; 360,000 tested, 1.1% active; inhibition, % at 12.3 µM; HeLa-JRFL Env/CEM21 cell fusion, luciferase;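 active means mean replicate inhibition score of at least 50 and every replicate individually at or above 50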;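 further: 0% = plate neutral controls and 100% = maraviroc near 300 nM; one replicate is shown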
# Numbers without * were called inactive; [ ] = remark or other dose.
# Each structure is followed by: Env fusion inh | Yeast UUG start
> C[C@@H]1CN([C@H](C)CO)C(=O)CCCn2cc(nn2)CO[C@H]1CN(C)CC1CCCCC1
→ 16[16.7 µM] | -8
> C[C@H](NC(=O)C[C@H]1C[C@@H]2c3cc(NS(C)(=O)=O)ccc3O[C@@H]2[C@H](CO)O1)c1ccccc1
→ -12[16.7 µM] | -12
> COc1ccc(C#Cc2cnc3c(c2)C(=O)N([C@H](C)CO)C[C@@H](C)[C@@H](CN(C)C)O3)cc1
→ 6[16.7 µM] | 4
> C[C@H](CO)N1C[C@H](C)[C@H](CN(C)S(=O)(=O)c2ccc(F)cc2)OCCCC[C@H](C)Oc2ccc(NS(C)(=O)=O)cc2C1=O
→ 7[16.7 µM] | 6
> C[C@@H]1CCCCO[C@H](CN(C)C(=O)c2ccncc2)[C@@H](C)CN([C@H](C)CO)C(=O)c2cc(NC(=O)NC3CCCCC3)ccc2O1
→ -11[16.7 µM] | -1
> C[C@@H]1CN([C@@H](C)CO)C(=O)c2cc(-c3cncnc3)cnc2O[C@@H]1CN(C)C(=O)Cc1ccccc1
→ 13[16.7 µM] | -1
> O=C(NCc1ccc(F)cc1)[C@@H]1C[C@@H]2C(=O)N3CCC[C@H]3C(=O)N2[C@@H]1c1cccc(OCCO)c1
→ -5[16.7 µM] | -10
> COCCNC(=O)C[C@H]1C[C@@H]2c3cc(NC(=O)Nc4ccc(F)cc4)ccc3O[C@@H]2[C@H](CO)O1
→ 9[16.7 µM] | -6
> COc1ccc(S(=O)(=O)N(C)C[C@H]2Oc3ccc(NS(C)(=O)=O)cc3C(=O)N([C@@H](C)CO)C[C@@H]2C)cc1
→ 0[16.7 µM] | 0
> CCCC#Cc1ccc([C@@H]2[C@@H](CO)N(C(=O)C3CCCC3)[C@H]2C#N)cc1
→ -1[16.7 µM] | 11
> O=C(C[C@H]1C[C@@H]2c3cc(NC(=O)Nc4ccccc4F)ccc3O[C@@H]2[C@@H](CO)O1)NCC1CC1
→ -4[16.7 µM] | 1
> C[C@H](CO)N1C[C@H](C)[C@H](CN(C)Cc2ccc(F)cc2)Oc2ncc(-c3cccc(C#N)c3)cc2C1=O
→ 5[16.7 µM] | -2
> CC(C)NC(=O)Nc1ccc2c(c1)C(=O)N([C@@H](C)CO)C[C@@H](C)[C@H](CN(C)C(=O)Nc1ccc(C(F)(F)F)cc1)O2
→ 15[16.7 µM] | 6
> CCNC(=O)C[C@H]1CC[C@@H]2[C@H](COc3ccc(NC(=O)c4cccs4)cc3C(=O)N2C)O1
→ -19[16.7 µM] | -9
> Cc1ccc(S(=O)(=O)N(C)C[C@@H]2Oc3ccc(NC(=O)Nc4c(C)noc4C)cc3C(=O)N([C@@H](C)CO)C[C@H]2C)cc1
→ 8[16.7 µM] | 7
> C[C@H](O)C#Cc1ccc2c(c1)O[C@H](CN(C)C(=O)C1CCCCC1)[C@H](C)CN([C@H](C)CO)S2(=O)=O
→ -13[16.7 µM] | 16
> Cc1noc(C)c1S(=O)(=O)Nc1ccc2c(c1)C(=O)N([C@@H](C)CO)C[C@@H](C)[C@@H](CN(C)S(=O)(=O)c1c(C)noc1C)OCCCC[C@@H](C)O2
→ -17[16.7 µM] | 20
> Cc1noc(C)c1NC(=O)Nc1cccc2c1O[C@H](CN(C)S(C)(=O)=O)[C@@H](C)CN([C@@H](C)CO)C2=O
→ -13[16.7 µM] | -3
> C[C@@H](NC(=O)C[C@H]1CC[C@H](NC(=O)CN2CCOCC2)[C@H](CO)O1)c1ccccc1
→ -17[16.7 µM] | -14
> CC(C)NC(=O)Nc1ccc2c(c1)C(=O)N([C@@H](C)CO)C[C@@H](C)[C@H](CN(C)CC1CC1)OCCCC[C@@H](C)O2
→ 14[16.7 µM] | 3

# Following part.
# Each structure is followed by: Env fusion inh | Yeast UUG start
> O=C(C[C@H]1C=C[C@@H](NC(=O)CN2CCOCC2)[C@@H](CO)O1)NC1CCC1
→ 16[16.7 µM] | -4
> C[C@H](CO)N1C[C@H](C)[C@H](CN(C)C(=O)c2ccccc2)Oc2cc(C#CC3CC3)ccc2S1(=O)=O
→ 16[16.7 µM] | -2
> C[C@H](NC(=O)C[C@H]1CC[C@H](NC(=O)C2CCOCC2)[C@H](CO)O1)c1ccccc1
→ -1[16.7 µM] | -11
> O=C(Nc1ccc2c(c1)[C@@H]1C[C@H](CC(=O)N3CCOCC3)O[C@H](CO)[C@@H]1O2)c1cccnc1
→ 1[16.7 µM] | -12
> Cc1noc(C)c1S(=O)(=O)Nc1ccc2c(c1)C(=O)N([C@H](C)CO)C[C@@H](C)[C@H](CN(C)Cc1ccc(C(=O)O)cc1)OCCCC[C@@H](C)O2
→ -13[16.7 µM] | 8
> O=C(N[C@@H]1CC[C@H](CCNC(=O)c2ccccc2F)O[C@H]1CO)c1cnccn1
→ -4[16.7 µM] | 1
> Cc1ccc(S(=O)(=O)N(C)C[C@H]2Oc3ccc(NS(=O)(=O)c4cccs4)cc3C(=O)N([C@H](C)CO)C[C@H]2C)cc1
→ -15[16.7 µM] | 16
> C[C@@H]1CN([C@@H](C)CO)C(=O)c2cc(NC(=O)CCN3CCOCC3)ccc2O[C@H]1CN(C)S(=O)(=O)c1ccc(F)cc1
→ 1[16.7 µM] | 18
> O=C(C[C@@H]1CC[C@H](NC(=O)c2cccc(F)c2)[C@@H](CO)O1)Nc1nccs1
→ 6[16.7 µM] | -10
> COc1ccc(CN(C)C[C@H]2OCCCC[C@H](C)Oc3ccc(NC(=O)Nc4ccccc4)cc3C(=O)N([C@@H](C)CO)C[C@@H]2C)cc1
→ 1[16.7 µM] | 29
> C[C@H](CO)N1C[C@H](C)[C@@H](CN(C)C(=O)CN(C)C)Oc2cc(C#Cc3ccccc3)ccc2S1(=O)=O
→ 27[16.7 µM] | 8
> C[C@@H]1CN([C@@H](C)CO)S(=O)(=O)c2ccc(C#CC3CC3)cc2O[C@H]1CN(C)Cc1ccccc1
→ 13[16.7 µM] | 2
> COc1ccc(S(=O)(=O)Nc2ccc3c(c2)C(=O)N([C@@H](C)CO)C[C@H](C)[C@@H](CN(C)Cc2ccc(C(=O)O)cc2)OCCCC[C@H](C)O3)cc1
→ -13[16.7 µM] | -6
> C[C@@H]1CN([C@H](C)CO)C(=O)c2cc(C#CC3CCCC3)cnc2O[C@H]1CN(C)C(=O)C1CCCCC1
→ 31[16.7 µM] | 10
> CO[C@H]1CN(C)C(=O)c2cc(NC(=O)C3CCC3)ccc2OC[C@@H](C)N(Cc2ccncc2)C[C@@H]1C
→ -58[16.7 µM] | -10
> O=C(C[C@@H]1CC[C@H]2[C@@H](COC[C@@H](O)CN2CC2CCOCC2)O1)NCC1CC1
→ 9[16.7 µM] | 2
> O=C(Cc1ccccc1)N[C@@H]1CC[C@H](CC(=O)N2CCOCC2)O[C@H]1CO
→ -12[16.7 µM] | -1
> C[C@@H]1CN([C@H](C)CO)C(=O)Cc2cc(NC(=O)c3ccncc3)ccc2O[C@H]1CN(C)Cc1ccc(-c2ccccc2)cc1
→ 18[16.7 µM] | 27
> C[C@H]1CCCCO[C@H](CN(C)C(=O)c2ccncc2)[C@@H](C)CN([C@@H](C)CO)C(=O)c2cc(NS(=O)(=O)c3ccccc3)ccc2O1
→ 11[16.7 µM] | -8
> CCCNC(=O)N(C)C[C@@H]1Oc2ncc(C#C[C@@H](C)O)cc2C(=O)N([C@H](C)CO)C[C@@H]1C
→ 2[16.7 µM] | 2

# 2 entries drawn at random from the list so far:
# Each structure is followed by: Env fusion inh | Yeast UUG start
> O=C(C[C@@H]1CC[C@H](NC(=O)c2cccc(F)c2)[C@@H](CO)O1)Nc1nccs1
→ 6[16.7 µM] | -10
> O=C(Cc1ccccc1)N[C@@H]1CC[C@H](CC(=O)N2CCOCC2)O[C@H]1CO
→ -12[16.7 µM] | -1

# The main list resumes, starting 7 compounds before the break.
# Each structure is followed by: Env fusion inh | Yeast UUG start
> C[C@@H]1CN([C@H](C)CO)C(=O)c2cc(C#CC3CCCC3)cnc2O[C@H]1CN(C)C(=O)C1CCCCC1
→ 31[16.7 µM] | 10
> CO[C@H]1CN(C)C(=O)c2cc(NC(=O)C3CCC3)ccc2OC[C@@H](C)N(Cc2ccncc2)C[C@@H]1C
→ -58[16.7 µM] | -10
> O=C(C[C@@H]1CC[C@H]2[C@@H](COC[C@@H](O)CN2CC2CCOCC2)O1)NCC1CC1
→ 9[16.7 µM] | 2
> O=C(Cc1ccccc1)N[C@@H]1CC[C@H](CC(=O)N2CCOCC2)O[C@H]1CO
→ -12[16.7 µM] | -1
> C[C@@H]1CN([C@H](C)CO)C(=O)Cc2cc(NC(=O)c3ccncc3)ccc2O[C@H]1CN(C)Cc1ccc(-c2ccccc2)cc1
→ 18[16.7 µM] | 27
> C[C@H]1CCCCO[C@H](CN(C)C(=O)c2ccncc2)[C@@H](C)CN([C@@H](C)CO)C(=O)c2cc(NS(=O)(=O)c3ccccc3)ccc2O1
→ 11[16.7 µM] | -8
> CCCNC(=O)N(C)C[C@@H]1Oc2ncc(C#C[C@@H](C)O)cc2C(=O)N([C@H](C)CO)C[C@@H]1C
→ 2[16.7 µM] | 2
> C[C@@H]1CN([C@@H](C)CO)C(=O)c2cc(NS(=O)(=O)c3ccc(Cl)cc3)ccc2O[C@H]1CN(C)CC1CCCCC1
→ 0[16.7 µM] | 1
> C[C@H](CO)N1C[C@H](C)[C@@H](CN(C)Cc2ccc(C(F)(F)F)cc2)OCCCC[C@H](C)Oc2ccc(NC(=O)NC3CCCCC3)cc2C1=O
→ -5[16.7 µM] | 14
> C[C@@H]1CN([C@@H](C)CO)C(=O)c2cccc(NC(=O)Nc3ccccc3)c2O[C@@H]1CN(C)S(=O)(=O)c1cn(C)cn1
→ 21[16.7 µM] | -10
> COc1ccc(CN(C)C[C@H]2OCCCC[C@H](C)Oc3ccc(NC(=O)Nc4ccc(OC)cc4)cc3C(=O)N([C@H](C)CO)C[C@H]2C)cc1
→ -1[16.7 µM] | 23
> COc1cccc(-c2cnc3c(c2)C(=O)N([C@@H](C)CO)C[C@@H](C)[C@@H](CN(C)Cc2ccccc2)O3)c1
→ 2[16.7 µM] | 7
> C[C@H](CO)N1C[C@H](C)[C@H](CN(C)Cc2ccc(Oc3ccccc3)cc2)Oc2ccc(NC(=O)Nc3cccc4ccccc34)cc2C1=O
→ -2[16.7 µM] | -11
> CN1C(=O)c2cc(NC(=O)C3CCOCC3)ccc2OC[C@H]2O[C@@H](CC(=O)NCC3CC3)CC[C@@H]21
→ -23[16.7 µM] | -9
> O=S(=O)(N[C@H]1CC[C@@H](CCn2cc(-c3cccnc3)nn2)O[C@H]1CO)c1ccccc1
→ 6[16.7 µM] | -11
> C[C@@H]1CN([C@H](C)CO)C(=O)c2cc(-c3ccccc3F)cnc2O[C@@H]1CN(C)C(=O)C1CCCCC1
→ -16[16.7 µM] | 17
> C[C@@H]1CN([C@H](C)CO)C(=O)c2cc(C3=CCCC3)cnc2O[C@@H]1CN(C)C(=O)Nc1cccc(F)c1
→ 16[16.7 µM] | 8
> COCC(=O)Nc1ccc2c(c1)C(=O)N(C)C[C@@H](OC)[C@H](C)CN(C(=O)c1ccccc1F)[C@H](C)CO2
→ 18[16.7 µM] | -8
> CC(C)C#Cc1ccc2c(c1)O[C@H](CN(C)Cc1ccccn1)[C@@H](C)CN([C@H](C)CO)S2(=O)=O
→ -21[16.7 µM] | -1
> CCC(=O)Nc1ccc2c(c1)C(=O)N(C)[C@H]1CC[C@@H](CC(=O)NCc3ccc(OC)cc3)O[C@H]1CO2
→ 2[16.7 µM] | -5
> CO[C@@H]1CN(C)C(=O)c2ccc(NC(=O)NC(C)C)cc2OC[C@@H](C)N(CCC(F)(F)F)C[C@H]1C
→ -7[16.7 µM] | 9
> C[C@@H]1CCCCO[C@@H](CN(C)S(=O)(=O)c2cn(C)cn2)[C@H](C)CN([C@@H](C)CO)C(=O)c2cc(NC(=O)Cc3ccccc3)ccc2O1
→ -1[16.7 µM] | 17
> COc1ccc(NC(=O)Nc2ccc3c(c2)C(=O)N([C@H](C)CO)C[C@@H](C)[C@H](CN(C)S(C)(=O)=O)OCCCC[C@@H](C)O3)cc1
→ -3[16.7 µM] | 14
> CCCNC(=O)N(C)C[C@@H]1Oc2ncc(C#CCc3ccccc3)cc2C(=O)N([C@@H](C)CO)C[C@@H]1C
→ 3[16.7 µM] | 36
> O=C(C[C@@H]1CC[C@H]2[C@@H](COC[C@@H](O)CN2C(=O)c2cnccn2)O1)N1CCN(c2ccccc2)CC1
→ 1[16.7 µM] | -6
> C[C@@H]1CCCCO[C@H](CN(C)S(C)(=O)=O)[C@@H](C)CN([C@H](C)CO)C(=O)c2cc(NC(=O)Nc3ccccc3)ccc2O1
→ -15[16.7 µM] | -4
> C[C@@H]1CN([C@H](C)CO)C(=O)c2cc(-c3cncnc3)cnc2O[C@@H]1CN(C)Cc1ccccc1
→ 10[16.7 µM] | -13

# Other records follow:
# Each structure is followed by: Env fusion inh | Yeast UUG start
> COc1ccc(S(=O)(=O)N(C)C[C@@H]2Oc3c(NC(=O)c4ccc(-c5nccs5)cc4)cccc3C(=O)N([C@H](C)CO)C[C@H]2C)cc1
→ -111[16.7 µM] | 10
> COCC#Cc1ccc2c(c1)O[C@@H](CN(C)CC1CCCCC1)[C@@H](C)CN([C@@H](C)CO)S2(=O)=O
→ -21[16.7 µM] | 7
> Cc1ccc(-c2cnc3c(c2)C(=O)N([C@@H](C)CO)C[C@H](C)[C@@H](CN(C)C(=O)CN(C)C)O3)cc1
→ -4[16.7 µM] | 4
> CCCNC(=O)C[C@H]1CC[C@@H]2[C@@H](COc3ccc(NC(=O)C4CCOCC4)cc3C(=O)N2C)O1
→ -41[16.7 µM] | -15
> C[C@@H]1CCCCO[C@@H](CN(C)CC2CCCCC2)[C@@H](C)CN([C@H](C)CO)C(=O)c2cc(NC(=O)Nc3ccc(F)cc3)ccc2O1
→ 12[16.7 µM] | 7
> COc1ccc(C#Cc2ccc3c(c2)O[C@H](CN(C)C(=O)Nc2cccc(OC)c2)[C@@H](C)CN([C@@H](C)CO)S3(=O)=O)cc1
→ 10[16.7 µM] | 8
> COCC(=O)Nc1ccc2c(c1)[C@@H]1C[C@@H](CC(=O)NCCc3ccccc3)O[C@@H](CO)[C@@H]1O2
→ -10[16.7 µM] | -3

# These rows are one share of the data. The share of hits here may be higher or lower than overall.
